# CSC inhib = blocks cancer stem cells; AID 2717; cancer stem cell-like cells viability, luminescence; inhibition, % at 7.5 µM; 1.1% of 300,000 active;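 active = mean at 75% or more and at least half the replicates too; inconclusive = mean and replicates disagree; tested in HMLE shEcad cells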;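 also: 0% = median of negative and 100% = median of positive control wells; the first replicate is given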
# eIF4H FP inh = inhibitors of RNA binding by human eIF4H. Q15056. eIF4H fluorescence polarization binding assay. inhibition, % at 35 µM. 0.94% of 290,000 active;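 active = 50% or more with normal probe brightness, or confirmed in later tests; inconclusive = above 50% with abnormal brightness, or retests that disagree; inactive = below 50% or failed in later tests; about a fifth of its hits are not listed in these tables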;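 also: calls also rest on retests at 20 µM and on dose response follow-up; 0% = protein and probe with vehicle and 100% = probe without protein; strong numbers were not always called active; many hits fall short of the cut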
# UUG fidelity = modulators of start codon recognition fidelity in yeast | 0.13% of 350,000 active | AID 602363 | activity score, % at 18.7 µM | S. cerevisiae UUG-firefly luciferase reporter, luminescence/redox ratio;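 active = replicate mean at a twofold rise or more, about +100% in these data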;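 also: firefly luciferase made from a UUG start codon reports start codon fidelity; reporter light over untreated wells divided by growth signal over untreated wells; some hits fall short of that in this replicate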
# Rce1 inh = yeast Ras-converting enzyme inhibition | Q03530 | yeast membranes, quenched prenylated peptide cleavage fluorescence | calls only | 0.27% of 290,000 active | AID 2563;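 active = fall in fluorescence gain of 50% or more versus controls, with final raw signal at or below 3038400; inconclusive = same 50% fall but final raw signal above 3038400; inactive = fall in fluorescence gain under 50%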;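 also: plate controls were neutral control wells for no effect and wells lacking membranes for full effect; tested at 10 µM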
# Target sequence (Q03530 whole entry, looked up): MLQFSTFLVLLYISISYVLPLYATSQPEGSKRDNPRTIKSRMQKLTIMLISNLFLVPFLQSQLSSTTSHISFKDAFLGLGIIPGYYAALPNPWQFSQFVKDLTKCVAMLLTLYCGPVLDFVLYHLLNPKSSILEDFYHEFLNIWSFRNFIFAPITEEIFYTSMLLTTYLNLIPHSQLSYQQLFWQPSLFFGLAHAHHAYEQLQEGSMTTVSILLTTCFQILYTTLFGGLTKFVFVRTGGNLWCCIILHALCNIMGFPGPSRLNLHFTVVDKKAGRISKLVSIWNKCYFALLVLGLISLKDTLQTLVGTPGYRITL
# Env fusion inh = HIV envelope-mediated fusion inhibition. HeLa-JRFL Env/CEM21 cell fusion, luciferase. inhibition, % at 12.3 µM. 1.1% of 360,000 active;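 active = mean replicate inhibition score of at least 50 and every replicate individually at or above 50; inconclusive = only one of the two criteria met; inactive = mean below 50 and not all replicates reaching 50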;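 also: 0% = plate neutral controls and 100% = maraviroc near 300 nM; one replicate is shown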
# MT1-MMP act inh = MT1-MMP (human) activation inhibition | P50281 | HT1080 RFP-PRO-GFP cells, GFP/RFP ratio fluorescence, overnight; percent of plate control window, DMSO zero | GFP/RFP ratio change, % at 20 µM | 0.061% of 360,000 active;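 active = GFP/RFP ratio change of at least 30% with cell ATP level not reduced by more than half and red fluorescence within 50% of control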; also: strong numbers were not always called active
#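 Material – HT1080 RFP-PRO-GFP cells · Control set – DMSO wells and RFP-L50D-GFP cells · Incubation – overnight cell settling, then overnight compound exposure, 37 °C, 5% CO2 · Compound dosing – single-point 20 µM compound, 1% DMSO · Read-out – GFP/RFP fluorescence ratio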
# PABP polyA inh = PABP-poly(A) binding inhibition; PABP-poly(A) RNA binding, fluorescence polarization; inhibition, % at 35 µM; 1% of 290,000 active; P11940;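 active = 50% or more with normal probe brightness, or confirmed in later tests; inconclusive = above 50% with abnormal brightness, or retests that disagree; inactive = below 50% or failed in later tests; about a fifth of its hits are not listed in these tables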;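 also: calls also rest on retests at 20 µM and on dose response follow-up; controls were probe without protein and protein plus probe with vehicle; some compounds called inactive have numbers as strong as hits; many hits fall short of the cut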
# Target sequence (P11940 whole entry, looked up): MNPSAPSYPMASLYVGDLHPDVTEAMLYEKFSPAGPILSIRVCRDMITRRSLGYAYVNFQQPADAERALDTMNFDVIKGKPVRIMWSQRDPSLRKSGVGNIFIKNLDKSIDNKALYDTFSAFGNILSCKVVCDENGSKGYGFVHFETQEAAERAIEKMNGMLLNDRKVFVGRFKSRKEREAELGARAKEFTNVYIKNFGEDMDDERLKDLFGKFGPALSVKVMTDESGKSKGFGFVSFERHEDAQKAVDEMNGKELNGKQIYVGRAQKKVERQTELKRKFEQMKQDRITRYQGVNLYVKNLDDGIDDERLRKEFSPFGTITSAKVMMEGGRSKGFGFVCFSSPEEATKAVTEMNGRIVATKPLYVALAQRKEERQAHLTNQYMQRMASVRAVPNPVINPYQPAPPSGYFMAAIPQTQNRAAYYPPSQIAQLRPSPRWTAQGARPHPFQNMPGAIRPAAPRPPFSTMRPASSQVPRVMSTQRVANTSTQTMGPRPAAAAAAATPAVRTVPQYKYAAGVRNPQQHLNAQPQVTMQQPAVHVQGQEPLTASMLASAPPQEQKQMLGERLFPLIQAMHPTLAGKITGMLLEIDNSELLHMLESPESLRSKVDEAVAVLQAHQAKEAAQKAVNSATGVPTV
# eIF4H FP inh retest = second read-out of eIF4H FP inh, no call of its own (marks repeat the call); inhibition, %; compound at 20 µM; confirmation average;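 mean of two retest wells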
# PABP polyA inh retest = second read-out of PABP polyA inh, no call of its own (marks repeat the call); inhibition, %; compound at 20 µM; confirmation repeats;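 mean of two retest wells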
# MT1-MMP act inh RFP = recorded beside MT1-MMP act inh, whose call it bears; RFP signal change, %; measured here: RFP expression control read;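 0 = vehicle wells; hits needed this value within 50% of zero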
# * = called active by the depositor; i = inactive; ? = inconclusive; . = not tested or not shown.
SMILES,CSC inhib,eIF4H FP inh,UUG fidelity,Rce1 inh,Env fusion inh,MT1-MMP act inh,MT1-MMP act inh RFP,PABP polyA inh,others
CCCCCc1ccc(CC(=O)N2CCOCC2)cc1,3,-3,-9,i,-3,-1,-5,-10,
COc1ccccc1C(=O)OCC(=O)Nc1cccc(S(=O)(=O)N2CCCC2)c1,.,.,-10,.,3,3,0,.,
O=C(C[n+]1cccc(NC(=O)c2ccccc2)c1)c1ccc(NC(=O)c2ccccc2)cc1,.,-3,-19,i,.,-3,0,-4,
CC1(C(=O)NS(=O)(=O)c2cccc(F)c2)CCN1C(=O)CC1CCCC1 (stereo not given),.,.,-13,.,12,2,5,.,
Nc1ccc(C(=O)N/N=C\C=C\c2ccc([N+](=O)[O-])cc2)cc1,-1,-4,.,i,-10,9,-1,5,
Cc1cccc(C)c1NC1=NC(C)(C)N=C(N)N1,-14,-4,-9,i,.,2,2,4,
COc1ccc(S(=O)(=O)N2CCCCCC2)cc1C(=O)N(C)CC(=O)Nc1c(Cl)cccc1Cl,-2,.,.,i,29,2,4,.,
CC(C)Cn1c(N)c(C(=O)COC(=O)c2ccncc2)c(=O)n(C)c1=O,.,8,8,i,.,7,-4,4,
C/C(=N\Nc1nncc2ccccc12)c1ccc(OCC(=O)N(C)C)cc1,12,6,-18,i,1,0,0,-11,
O=C(N1CCOCC1)N1CCN(S(=O)(=O)c2ccc(F)cc2)CC1,-5,-3,-12,i,12,-2,0,4,
O=C(Nc1cccn2ncnc12)C(F)(F)F,-19,4,.,i,10,2,3,-7,
CC(=O)c1ccc(NC(=O)C2CCCN(S(=O)(=O)c3cccc4nonc34)C2)cc1 (stereo not given),-9,-4,-1,.,.,-4,0,-3,
CCn1c(SCc2ccccc2)nc2c1c(=O)[nH]c(=O)n2C,-14,-5,-4,i,3,4,3,9,
COc1ccc([N+](=O)[O-])cc1NC(=O)CSc1nncn1-c1ccccc1,-2,-5,.,i,13,4,1,-3,
COC(=O)c1ccc(COc2ccccc2/C=N/NS(=O)(=O)c2ccccc2)cc1,51,0,4,i,.,-4,-7,2,
Cc1onc(-c2c(Cl)cccc2Cl)c1C(=O)N1CCc2ccccc2C1,-12,0,8,i,.,-1,-2,8,
O=C(c1ccccc1)c1c[nH]c2cc3c(cc2c1=O)OCCO3,0,5,-16,i,-58,-1,3,3,
COc1cccc(-c2cnc3c(NC(C)=O)cc(-c4cccc(C(=O)NCCO)c4)cn23)c1,.,.,-9,.,-13,4,3,.,
Cc1ccc(NC(=O)c2ccc(NCc3ccc(F)cc3)nc2)cc1,-16,-6,.,i,0,9,5,-6,
CCn1cc(CN2CCCC(C(=O)c3ccc(-c4ccccc4)c(F)c3)C2)cn1 (stereo not given),32,10,14,i,3,6,-5,0,

# The last 3 records of the section above come first, to join the parts:
SMILES,CSC inhib,eIF4H FP inh,UUG fidelity,Rce1 inh,Env fusion inh,MT1-MMP act inh,MT1-MMP act inh RFP,PABP polyA inh,others
COc1cccc(-c2cnc3c(NC(C)=O)cc(-c4cccc(C(=O)NCCO)c4)cn23)c1,.,.,-9,.,-13,4,3,.,
Cc1ccc(NC(=O)c2ccc(NCc3ccc(F)cc3)nc2)cc1,-16,-6,.,i,0,9,5,-6,
CCn1cc(CN2CCCC(C(=O)c3ccc(-c4ccccc4)c(F)c3)C2)cn1 (stereo not given),32,10,14,i,3,6,-5,0,
CCOC(=O)c1[nH]c2cc(OC)c(OC)cc2c1NC(=O)CCN1CCSCC1,-5,86,.,i,13,5,4,8,eIF4H FP inh retest=-2;PABP polyA inh retest=4
Cc1cc(Cl)ccc1C(O)c1ncc(-c2ccc(Cl)cc2)[nH]1 (stereo not given),.,.,-35,.,28,2,-4,.,
O=C(O)CN1C(=O)NC2(CCCc3ccccc32)C1=O (stereo not given),8,-2,-4,i,-2,3,2,7,
CN1C(=O)CSc2ccc(NC(=O)NCc3ccco3)cc21,-7,-11,-1,i,.,-1,1,4,
Cc1c(-n2cc(C(=O)c3ccccc3O)cc(C#N)c2=O)c(=O)n(-c2ccccc2)n1C,-7,9,-9,i,15,-14,7,16,
OCCN(Cc1ccccc1)C(=S)NC1CCCCC1,2,-8,.,i,8,-1,-2,20,
Cc1csc(CN(C)C(=O)c2cn(Cc3cccc4ccccc34)nn2)n1,-13,-2,-6,i,-5,2,1,-2,
CC(C)Cc1nc(N2CCN(C(=O)c3ccco3)CC2)c(C#N)c2c1CCCC2,24,-12,-4,i,11,-8,-13,-4,
O=C(N/N=C/c1cc(Br)c(Br)o1)c1cc2ccccc2o1,11,-4,-9,i,-12,1,0,-2,
Cc1cc(C)n(CC(=O)NCc2cc(-c3nn(C)c(=O)c4ccccc34)ccc2C)n1,-2,-4,-27,i,.,1,-2,-1,
O=c1nc(N2CCCCC2)nc2n1CCO2,-9,1,0,i,.,1,5,0,
CCCc1cc(=O)n2[nH]cc(-c3ccc(Cl)cc3)c2n1,95*,22,-17,i,85*,-1,-7,14,
CCCNC(=O)c1onc(CSc2ccccn2)c1C(=O)NCCC,6,-8,-9,i,-9,2,-3,-13,
COc1ccccc1C1NC(=O)NC(C)=C1C(=O)Nc1cccc(C)c1C (stereo not given),-10,2,-13,i,0,0,5,0,
Cc1ccc(CNC(=O)CC2C(=O)Nc3c2c(=O)n(C)c(=O)n3Cc2ccccc2)cc1 (stereo not given),-8,-9,6,i,.,-5,-3,-4,
COC(=O)c1ccc(COc2ccc(/C=C(\C#N)c3nc4ccccc4[nH]3)cc2OC)o1,3,7,-17,i,22,-14,-4,-9,
O=C1[C@H]2[C@@H](c3ccc(C(F)(F)F)cc3)N[C@]3(CCCN(Cc4ccc(C(F)(F)F)cc4)C3=O)[C@H]2C(=O)N1Cc1ccccc1,.,.,-17,.,-35,1,-14,.,
COc1ccc2[nH]c(=O)c(CN(C(=O)c3ccco3)C(C)C)cc2c1,-23,-9,-6,i,-15,-7,-1,47,
CCN1CCN(C(=O)c2ccc(OC)c(S(=O)(=O)Nc3ccc(C)cc3)c2)CC1,-11,-4,-7,i,-8,-2,-1,?,
O=C(c1ccco1)N1CCN(C(c2cccs2)c2nnnn2C2CCCCC2)CC1 (stereo not given),11,1,-9,i,.,-2,0,0,
O=C(COC(=O)COc1ccccc1)NCCC1=CCCCC1,-16,.,-16,.,.,-2,-2,.,
Cc1csc(=Nc2cccnc2)n1Cc1ccco1,11,-1,-5,i,0,-2,0,1,
COc1c(/C=N/Nc2ccc([N+](=O)[O-])cc2[N+](=O)[O-])c(C)nn1-c1ccccc1,17,3,-15,i,28,10,5,1,
Cn1c(C(=O)Nc2ccc3c(c2)OCO3)cc2c(=O)n(C)c3ccccc3c21,.,7,-14,i,-46,4,2,13,
CCOC(=O)N1CCN(C(=O)c2cc(-n3cnnc3)ccc2Cl)CC1,10,-2,-16,i,.,-3,0,-13,
O=C(O)c1cccnc1SCc1cn2cc(Br)ccc2n1,0,-2,.,i,11,5,5,27,
CNC(=O)c1cc(Nc2nnc(-c3ccc(O)cc3)c3ccccc23)ccc1OC,-19,-9,5,i,6,12,-1,8,
CCn1c(Cc2ccccc2)nnc1SCc1cccc(C(=O)O)c1,-11,6,.,i,-1,-6,0,-4,
CN1CCN(CC(=O)Nc2ccccc2Oc2ccccc2)CC1,-22,-1,-9,i,1,-4,0,-8,
Cc1ccc(N2C(=O)SC(Cc3ccccc3)C2=O)cc1 (stereo not given),3,-1,10,i,6,-1,-1,5,
O=C(N/N=C/c1ccc(N2CCOCC2)cc1)C1COc2ccccc2O1 (stereo not given),-12,-6,.,i,-1,-10,-2,-2,
COC(=O)c1sc2nc(SCc3ccccc3C#N)n(N)c(=O)c2c1C,-2,-3,-9,i,.,-1,1,-3,
COc1cccc(NC(=O)C2CC(=O)N(Cc3ccc(C)cc3)C2)c1 (stereo not given),0,7,-5,i,2,2,2,4,
O=C(CCSc1ccccc1Cl)NNC(=O)c1ccncc1,2,.,.,i,-26,4,5,.,
O=C(COC(=O)Cn1c(C(F)(F)F)nc2ccccc21)Nc1ccc2c(c1)OCCO2,-3,2,.,i,.,.,.,13,
COc1ccc(C2CC(c3cccs3)=NN2C(=O)CSc2nc(=O)n3ccc(C)cc3n2)cc1 (stereo not given),-13,.,.,i,15,-5,-3,.,
N#C/C(=C\c1cccnc1)C(=O)NC1CCCCC1,-3,-11,-9,i,9,1,-7,-10,
COCCNC(=O)c1ccc(-c2ccc(OC)cc2C)c2ccoc12,.,.,7,.,9,0,-7,.,
CCCC(=O)N1CCN(c2ccc(NC(=O)c3cccs3)cc2)CC1,-8,-3,-14,i,-6,-1,1,-2,
CCc1cc(=O)oc2cc(OC(=O)c3ccco3)ccc12,8,-4,-14,i,1,-10,3,5,
O=C(CCC(=O)N1CCOc2ccc(Cl)cc21)NCCN1CCOCC1,-22,-7,3,i,-45,-4,4,-4,
COc1ccc(NC(=O)CCS(=O)(=O)c2cccc3nonc23)cc1,-6,-2,.,i,6,-2,0,6,
Cc1ccc2nc(SCC(=O)N3N=C(c4cccs4)CC3c3ccc(F)cc3)nc(=O)n2c1 (stereo not given),.,.,-17,.,51,-4,-2,.,
O=c1[nH]c2ccc(S(=O)(=O)Nc3ccc(Cl)cc3)cc2o1,-10,-10,-16,i,-1,4,5,3,
O=C(Nc1cccnc1)c1cccc(NC(=O)c2ccco2)c1,.,-3,-4,i,.,0,0,-7,
Cc1ccc2nc(N(CCCN(C)C)C(=O)CCc3ccccc3)sc2c1,5,-6,.,i,-11,-1,-4,-12,
O=C(CCNC(=O)c1ccc(Br)o1)NCc1ccccc1Cl,1,2,-1,i,-33,-1,2,13,
CCC(C)C(=O)Nc1nc(-c2ccc3c(c2)NC(=O)CO3)cs1 (stereo not given),-15,2,.,i,-24,0,-7,-3,
Cn1cccc1CC(=O)N/N=C\c1ccccc1,-13,-9,-7,.,0,0,4,11,
CCn1c(=O)c(C(=O)CN2CCCc3ccccc32)c(N)n(Cc2ccccc2)c1=O,.,9,0,i,-16,-209,-2,25,
O=C(c1cc(C2CC2)nn1-c1ccccc1)N1CCN(c2ccccc2O)CC1,-16,.,10,.,.,-8,-3,.,
CCCNC(=O)c1cc(C2CCCCN2C(=O)c2cccs2)on1 (stereo not given),.,.,-11,.,2,1,2,.,
O=C(COC(=O)/C=C/c1ccccc1)NC1CCCC1,-23,.,-5,.,-4,-2,-2,.,
Clc1ccc2c(N/N=C/c3ccc(Br)cc3)ccnc2c1,98*,5,-17,i,9,-1,-5,10,
COC(=O)C(C(=O)Nc1ccc(OC)cc1)C1CCCCCC1 (stereo not given),4,-2,0,i,.,0,1,5,
COc1ccc(CN2CCC(C)(Oc3ccc(C(C)=O)cc3)C2)c2ccccc12 (stereo not given),.,.,-2,.,29,-2,0,.,
CCOC(=O)c1nn(-c2ccc(Cl)cc2)cc1O,-10,-10,-24,i,-51,1,2,6,
COc1ccc(CN(C(=O)Cn2nnc(-c3ccc(C)o3)n2)C(C(=O)NCC2CCCO2)c2ccco2)cc1 (stereo not given),-7,-7,.,i,-56,-1,0,6,
O=C(O)c1[nH]c2ccc([N+](=O)[O-])cc2c1-c1ccccc1,11,3,-4,i,-1,0,4,5,
c1ccc(OCc2nn3c(-c4ccncc4)nnc3s2)cc1,-8,-6,.,i,?,-4,-3,1,

# The list is partial, so the mix of outcomes need not match the whole.
